From PubChem
MLL AF4-AF9 inh = MLL-AF4/AF9 protein interaction inhibition | P42568 | AlphaScreen, biotin-AF4 peptide binding to FLAG-AF9 | inhibition, % at 10 µM | 350,000 tested, 0.47% active | AID 651704;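 active = every replicate reaching a set inhibition limit, whatever the replicate mean, cut at about 25% in these data; inconclusive = mean inhibition reaches that limit but some replicates miss it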;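 also: 0% = plate neutral control median and 100% = total signal loss; the record names both 10 and 1 µM as test concentration; the first replicate is given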
Target sequence (P42568 whole entry, looked up): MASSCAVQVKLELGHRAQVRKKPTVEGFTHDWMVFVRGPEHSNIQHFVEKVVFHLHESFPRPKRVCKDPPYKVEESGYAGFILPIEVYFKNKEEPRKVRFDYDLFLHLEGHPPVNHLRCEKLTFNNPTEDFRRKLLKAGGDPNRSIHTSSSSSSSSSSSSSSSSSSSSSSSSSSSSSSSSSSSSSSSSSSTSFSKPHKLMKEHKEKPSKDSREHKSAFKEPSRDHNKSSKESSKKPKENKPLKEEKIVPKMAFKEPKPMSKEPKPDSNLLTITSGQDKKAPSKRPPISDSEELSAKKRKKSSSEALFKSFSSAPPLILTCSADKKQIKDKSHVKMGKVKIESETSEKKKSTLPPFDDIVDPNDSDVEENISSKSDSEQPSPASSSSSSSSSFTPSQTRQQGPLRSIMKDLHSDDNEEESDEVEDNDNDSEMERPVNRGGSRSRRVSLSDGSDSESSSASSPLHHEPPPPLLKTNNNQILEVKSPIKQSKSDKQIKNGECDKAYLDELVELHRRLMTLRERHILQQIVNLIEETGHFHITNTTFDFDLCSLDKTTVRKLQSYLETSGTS
Vif A3G = HIV-1 Vif–A3G interaction blockers – biochemical, TR-FRET, GST-Vif 1-94, biotin-A3G peptide, dose response retest, primary screen (AID 1117319). TR-FRET GST-Vif / biotin-A3G peptide binding; higher % means a stronger effect; test concentration not given here; strong numbers were not always called active. inhibition, %, or IC50 in µM where a hit was titrated. 260,000 tested, 0.57% active;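 active = above the screen mean plus three standard deviations and confirmed in dose response; inconclusive = results disagree or hit not tested in dose response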;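 also: Vif residues 1-94 fused to GST binding biotinylated APOBEC3G peptide 110-148; 0% = full assay without inhibitor and 100% = GST in place of GST-Vif; retest series ran down from 100 µM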
ALR inh = inhibitors of human sulfhydryl oxidase ALR; purified ALR, DTT oxidation, H2O2 HRP-luminol luminescence; inhibition, % (test concentration not listed); 290,000 tested, 3.8% active; P55789;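 active = mean and each replicate at 75% or more; inconclusive = only one of the two met; inactive = neither met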;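 also: stock transfer was 7.5 nL into about 7.5 µL; 0% = neutral wells and 100% = wells with inactivated enzyme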
HNF4A DNA FP = change in binding of human HNF4 alpha to DNA; HNF4a-FITC DNA binding, fluorescence polarization, 1 h; activity change, % at 10 µM; 360,000 tested, 0.3% active; AID 1224865; in the data active = activity change above about 30%, passing the limit was not always enough;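 also: controls were the assay level and a saturating level of protein; the project sought stronger binding though the title names inhibitors; some compounds called inactive have numbers as strong as hits; positive values seem to mean higher polarization but the record does not say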
Target sequence (P41235 whole entry, looked up): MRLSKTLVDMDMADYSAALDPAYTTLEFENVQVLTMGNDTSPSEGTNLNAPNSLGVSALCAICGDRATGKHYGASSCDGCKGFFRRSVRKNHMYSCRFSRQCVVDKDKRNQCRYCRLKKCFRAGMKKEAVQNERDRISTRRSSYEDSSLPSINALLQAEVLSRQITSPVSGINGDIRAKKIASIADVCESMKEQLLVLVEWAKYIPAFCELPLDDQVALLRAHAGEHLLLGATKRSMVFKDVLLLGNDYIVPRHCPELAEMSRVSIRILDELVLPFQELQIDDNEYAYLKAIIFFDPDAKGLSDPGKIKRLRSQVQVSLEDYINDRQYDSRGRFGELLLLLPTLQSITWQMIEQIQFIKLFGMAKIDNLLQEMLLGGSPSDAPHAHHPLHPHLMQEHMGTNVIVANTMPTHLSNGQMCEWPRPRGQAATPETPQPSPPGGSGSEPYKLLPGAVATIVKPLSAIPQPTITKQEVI
FGF22 binding = shifts melting point of recombinant human FGF22. Q9HCT0. recombinant FGF22 thermal shift, SYPRO orange fluorescence; percent of sucrose octasulfate shift, DMSO zero. calls only at 9.99 µM. 340,000 tested, 1.5% active;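 active = melting point raised past a set limit in the mean and every replicate; inconclusive = no clear call; three in four hits are not shown here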
Ecoli rRNA inh = inhibits bacterial ribosomal RNA function over humanized ribosomes | E. coli WT GFP vs humanized-ribosome RFP mutants, fluorescence, 24 h; active compounds read low; DMSO median 0, no signal -100 | GFP signal change (wild-type ribosome), % (no concentration beside the values) | 350,000 tested, 1.6% active | AID 720706;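 active = significant combined selectivity score with lowered wild-type GFP, culture density cut under 30%, mutant RFP and density less affected; inactive = any of these conditions unmet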; also: one replicate is shown; some compounds called inactive have numbers as strong as hits
E coli growth = inhibitors of Escherichia coli growth; OD600, 23 h; active compounds read low; OD600 absorbance (concentration not given with the values); 330,000 tested, 0.21% active; AID 1053175;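 active = OD600 absorbance below the run mean of sample wells minus 3.6 SD, in any replicate, cut at about 0.56 in these data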;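 also: stock transfer was 300 nL into about 60 µL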
Ecoli rRNA inh OD600 = further read-out of Ecoli rRNA inh, marked with its call; OD600 change, %; measured here: OD600 growth;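 optical density of the mix in the first replicate; 0 = DMSO median and -100 = no signal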
Ecoli rRNA inh RFP = also measured in Ecoli rRNA inh; calls as there; RFP signal change, %; measured here: RFP humanized mutant strains;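 first replicate; 0 = DMSO median and -100 = no signal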
The depositor's hits bear a star; i = inactive; ? = inconclusive; · = no result given; & = joins results of further samples. An excerpt. The share of hits here may be higher or lower than overall.

A first look, five compounds:
SMILES	MLL AF4-AF9 inh	Vif A3G	ALR inh	HNF4A DNA FP	FGF22 binding	Ecoli rRNA inh	Ecoli rRNA inh OD600	Ecoli rRNA inh RFP	E coli growth
CC(C)(C)S(=O)(=O)c1cnc(N2CCOCC2)nc1N	-6.6	9%	-3	2.4	i	-1	0	-1.0	0.69
COC1C(=O)CCC2(CO2)C1(O)C1(C)OC1CC=C(C)C (stereo not drawn)	-2.0	·	·	7.8	i	·	·	·	·
Cc1ccc(CCNC(=O)C2CCC(=O)N2C(C)C)cc1 (stereo not drawn)	-3.2	-1%	-2	-4.0	i	7	1	-7.5	0.71
C=CCn1c(SC2CCOC2=O)nc2sc(C)c(C)c2c1=O (stereo not drawn)	·	7%	-3	10	·	·	·	·	0.7
Cc1cccc2sc(NC(=O)CCNS(=O)(=O)c3cccc4nonc34)nc12	·	22%	-6	1.0	·	·	·	·	0.65

All compounds of this part (from the top)
SMILES	MLL AF4-AF9 inh	Vif A3G	ALR inh	HNF4A DNA FP	FGF22 binding	Ecoli rRNA inh	Ecoli rRNA inh OD600	Ecoli rRNA inh RFP	E coli growth
CC(C)(C)S(=O)(=O)c1cnc(N2CCOCC2)nc1N	-6.6	9%	-3	2.4	i	-1	0	-1.0	0.69
COC1C(=O)CCC2(CO2)C1(O)C1(C)OC1CC=C(C)C (stereo not drawn)	-2.0	·	·	7.8	i	·	·	·	·
Cc1ccc(CCNC(=O)C2CCC(=O)N2C(C)C)cc1 (stereo not drawn)	-3.2	-1%	-2	-4.0	i	7	1	-7.5	0.71
C=CCn1c(SC2CCOC2=O)nc2sc(C)c(C)c2c1=O (stereo not drawn)	·	7%	-3	10	·	·	·	·	0.7
Cc1cccc2sc(NC(=O)CCNS(=O)(=O)c3cccc4nonc34)nc12	·	22%	-6	1.0	·	·	·	·	0.65
CS(=O)(=O)N1CCN(C(=O)NC2CCCCC2)CC1	-1.5	-4%	-3	-1.5	i	25	19	5.0	0.7
Cc1ccc(Cl)cc1N1CCN(S(=O)(=O)c2ccc(-c3ccc(=O)[nH]n3)o2)CC1	0.6	-4%	-4	0.6	i	2	5	-2.3	0.69
CC1CC(C)CN(C(=O)CN2C(=O)NC(C)(C)C2=O)C1 (stereo not drawn)	-9.5	4%	-3	-2.3	i	7	8	-3.1	0.72
Cc1c(C(=O)O)sc(S(=O)(=O)N2CCN(C(=O)Cc3ccc(Cl)cc3)CC2)c1C(=O)O	-6.2	·	·	-1.3	i	4	4	-1.3	0.72
Cc1nc2oc(C(=O)c3ccc(Br)cc3)c(N)c2c2c1COC(C)(C)C2	·	4%	·	-3.6	·	·	·	·	0.73
O=C(NCCN1CCOCC1)c1cccc(S(=O)(=O)Nc2cc(Cl)ccc2Cl)c1	-2.9	-2%	·	-3.8	i	0	-6	-5.3	0.68
COc1ccc(OC)c(NC(=O)C2CCCNC2=O)c1 (stereo not drawn)	·	2%	-4	-1.0	·	·	·	·	0.69
Cc1nc(CC(=O)c2ccc(O)cc2O)cs1	·	9%	1	-3.6	·	·	·	·	0.67
O=C(NCc1ccncc1)Nc1ccccc1	·	?	8	1.4	·	·	·	·	0.74
Cc1ccsc1/C=C(\C#N)C(=O)NC1CCS(=O)(=O)C1 (stereo not drawn)	-1.4	7%	0	-4.7	i	5	6	4.2	0.65
C[C@H](CO)N1C[C@H](C)[C@H](CN(C)Cc2ccccc2)Oc2ccc(NC(=O)Cc3cn(C)c4ccccc34)cc2CC1=O	3.6	·	·	·	i	5	-1	15	·
O=C(Nc1ccc(Cl)cc1)NC1CCCc2ccccc21 (stereo not drawn)	·	-1%	·	-0.6	·	·	·	·	0.79
Cc1cccc(Nc2nc(N3CCCC3)nc(N3CCCC3)n2)c1	·	-7%	-1	2.5	·	·	·	·	0.65
CC(C=NNC(=O)C(=O)NN=CC(C)=Cc1ccccc1)=Cc1ccccc1	·	-3%	·	4.4	·	·	·	·	0.7
O=C1CCC[C@@H]2C=C[C@H](c3ccc(Br)cc3)[C@H]3CCN1[C@@H]32	-0.4	·	·	3.5	i	-44	-77	-15	·
C/C=C/c1ccc([C@H]2[C@H](CO)N(C(C)=O)[C@H]2CNC(=O)c2ccccc2)cc1	2.8	·	·	·	i	-1	-3	-1.8	·
O=C(CCN1C(=O)/C(=C/c2ccccc2Cl)SC1=S)N1CCOCC1	0.9	·	-2	3.6	i	12	10	6.6	0.75
COC(=O)c1cc(Nc2cc(C)nc3ncnn23)cc(C(=O)OC)c1	1.5	-1%	26	2.2	i	7	3	-0.5	0.77
C[C@@H](C(=O)Nc1ccc2c(c1)OCCO2)n1c(=O)[nH]c2ccccc2c1=O	-8.8	·	-7	-0.1	i	8	5	0.5	0.71
COC(=O)c1ccc(CSc2nnc(NC(C)C)s2)cc1	·	1%	12	-3.0	·	·	·	·	0.68
CCCOc1ccc(C(=O)N/N=C/c2c[nH]c3ccc(Br)cc23)cc1	2.3	1%	-3	4.2	i	-19	-7	13	·
C[C@H]1CN([C@@H](C)CO)C(=O)Cc2cc(NC(=O)Cc3ccccc3)ccc2O[C@@H]1CN(C)Cc1ccc(C(=O)Nc2ccccc2N)cc1	-3.3	·	·	·	i	-6	-4	0.3	·
Cc1ccc(S(=O)(=O)N2CCOCC2)cc1NC(=O)Cn1nc(C)c([N+](=O)[O-])c1C	-6.5	-5%	-3	1.4	i	11	10	0.5	0.65
CCN(CC)C(=O)Cn1cnc2sc(C(=O)NCCCN3CCOCC3)c(C)c2c1=O	0.6	·	-6	-0.4	i	4	14	-2.9	0.67
CCOC(=O)c1ccccc1NC(=S)N1CCC(C(N)=O)CC1	-29	19%	-7	2.7	i	5	1	-6.7	0.64
NS(=O)(=O)c1ccc(NS(=O)(=O)c2ccc(C3CNC(=O)C3)cc2)cc1 (stereo not drawn)	-4.7	·	-3	-2.0	·	0	7	-3.2	0.62
NC(=S)Nc1ccccc1Br	-0.3	10%	·	1.8	i	6	12	1.8	0.7
O=C(O)Cn1cnc2c(OCc3ccccc3)ncnc21	-0.5	-5%	·	-0.2	i	16	10	-0.3	0.68
O=C(CSc1ccc(-c2ccncc2)nn1)c1ccccc1	2.5	8%	2	-0.4	i	7	-2	7.0	0.64
Cc1ccc(C)c(NS(=O)(=O)c2ccc(OCC(=O)NCc3ccco3)cc2)c1	·	8%	-5	-4.6	·	·	·	·	0.7
Cc1cc(C(F)(F)F)n(-c2nc(C(=O)NNS(=O)(=O)c3ccccc3)cs2)n1	·	31%	-9	1.7	·	·	·	·	0.74
CCn1nc2cc(C(=O)NCC34CC5CC(CC(C5)C3)C4)ccc2c1OC	5.1	?	-2	2.3	i	8	2	-0.7	0.7
CCCN(C)C[C@H]1Oc2ncc(C#Cc3ccc(OC)cc3)cc2C(=O)N([C@H](C)CO)C[C@H]1C	5.5	·	·	·	i	5	12	3.9	·
O=C(Cc1ccccn1)N[C@@H]1C=C[C@@H](CC(=O)N2CCCCC2)O[C@@H]1CO	-0.3	·	·	·	i	4	-2	1.5	·
C[C@H](CO)N1C[C@H](C)[C@@H](CN(C)S(=O)(=O)c2ccccc2F)Oc2ncc(Br)cc2C1=O	-0.1&-2.5	-2%	·	-1.6	i	-8	-8	-0.5	·
COC(=O)c1c(NC(C)=O)sc2c1CCCC2	·	0%	-9	-1.8	·	·	·	·	0.68
Cc1cccc(C(CC(=O)NCCc2ccccc2)c2ccccc2)c1O (stereo not drawn)	-1.8	-2%	14	-4.6	i	-49	-73	-10	0.71
CC(C)OC(=O)CC12CN3CN(C1)CC(CC(=O)OC(C)C)(C3)C2=O	-1.0	13%	0	1.5	·	5	1	-0.5	0.73
Cc1[nH]c2ccccc2c1C(=O)CCl	-0.5	-1%	·	-0.8	i	5	2	-1.7	0.6
C[C@H](CO)N1C[C@H](C)[C@@H](CN(C)Cc2ccc(Cl)c(Cl)c2)OCCCC[C@H](C)Oc2ccc(NS(=O)(=O)c3ccc(Cl)cc3)cc2C1=O	-1.5	·	·	·	i	-7	1	-3.4	·
COCC(=O)N1[C@H](CO)[C@@H](c2ccccc2)C12CN(C(=O)c1cccc(F)c1)C2	-7.3	·	·	·	i	1	4	-0.5	·
C[C@H]1CCCCO[C@@H](CN(C)S(=O)(=O)c2ccc(Cl)cc2)[C@@H](C)CN([C@@H](C)CO)C(=O)c2cc(N(C)C)ccc2O1	?	·	·	·	i	-7	-9	3.8	·
C[C@H](CO)N1C[C@H](C)[C@H](CN(C)S(=O)(=O)c2cn(C)cn2)Oc2ccc(NC(=O)c3ccncc3)cc2C1=O	-1.6	·	·	·	i	2	2	-1.1	·
Cc1c(-c2cccc(NC(=O)c3cccs3)c2)nc2ncccn12	-6.6	8%	·	3.0	i	-7	-3	0.0	0.68
Cc1ccc(C(=O)NCCNC(=O)COc2ccc(Cl)cc2)cn1	?	4%	·	1.3	i	9	7	-0.2	0.61
CC(C)c1nc(CNC(=O)C2CCC(=O)N(CCc3cccc(F)c3)C2)cs1 (stereo not drawn)	-1.3	-3%	-9	-2.1	i	10	7	0.0	0.71
COc1ccc2c(COC(=O)[C@H](C)NS(=O)(=O)c3ccccc3F)cc(=O)oc2c1	-0.2	0%	6	0.1	i	2	5	3.9	0.72
CCCCCCC12C(=Cc3cc4c(cc31)OCCO4)c1cc(OC)c(OC)cc1C(CC(=O)OC)N2C(=O)OC (stereo not drawn)	7.4	·	·	·	·	17	14	1.0	·
O=C(NC1CCCc2ccccc21)C1CCC(CNS(=O)(=O)c2cccc3nsnc23)CC1 (stereo not drawn)	-2.1	-8%	8	1.5	i	16	22	-2.4	0.71
CN1CCN(C(=O)C[C@H]2CC[C@H]3[C@@H](COC[C@@H](O)CN3C(=O)C3CC3)O2)CC1	-1.7	·	·	·	i	-2	-6	0.2	·
COc1ccc(NC(=O)Nc2ccc3c(c2)C(=O)N([C@H](C)CO)C[C@@H](C)[C@@H](CN(C)C(=O)NC2CCCCC2)O3)cc1	-17	·	·	·	i	-1	2	-1.6	·
CC1=C(C(=O)Nc2ccc(C)cc2C)C(c2cccs2)NC(=S)N1 (stereo not drawn)	·	4%	-1	1.6	·	·	·	·	0.74
CCOc1ccccc1NC(=O)CSc1nnc(Cc2ccc(OC)cc2)c(=O)n1N	5.7	·	-7	-1.9	i	-12	-19	-2.4	0.69
COc1ccc(C(=O)N2CCCC(c3nc(-c4cccs4)no3)C2)cc1 (stereo not drawn)	·	0%	0	0.9	·	·	·	·	0.67
Cc1ccc(S(=O)(=O)N2CCC[C@H]2C(=O)OCC(=O)c2ccc3c(c2)NC(=O)CO3)cc1	-6.1	2%	-6	0.0	i	-14	-7	6.3	0.69

The list continues.
SMILES	MLL AF4-AF9 inh	Vif A3G	ALR inh	HNF4A DNA FP	FGF22 binding	Ecoli rRNA inh	Ecoli rRNA inh OD600	Ecoli rRNA inh RFP	E coli growth
O=C(CCc1nc2ccccc2c(=O)[nH]1)N1CCCc2ccccc21	0.5	10%	-10	2.1	i	6	0	1.1	0.66
CCOc1ccc(S(=O)(=O)NCCC(=O)N2CC=C(c3ccccc3)CC2)cc1	-5.0	-10%	-22	1.3	i	·	·	·	0.63
C/C(=C\C(=O)Nc1cscc1C)C(=O)O	13	?	-1	2.8	i	-3	-4	-1.3	·
COc1ccc(C(C(=O)NC(C)(C)C)N(CC2CCCO2)C(=O)CCC(=O)Nc2cc(C)on2)cc1 (stereo not drawn)	·	6%	4	2.2	·	·	·	·	0.68
